From PubChem
PrP 5UTR inh = inhibition of PrP 5' UTR reporter expression | cell-based PrP 5' UTR mRNA reporter, plate reader | hit rate 0.35% among 340,000 | AID 488862 | inhibition, % (concentration not given with the values);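 active = every replicate at 50% or more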;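 also: 0 = median of the neutral control wells; tested in H4 reporter cells; numbers are from one replicate; inactives centre near -14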
ugtP null kill = kills S. aureus RN4220 lacking UgtP; S. aureus RN4220 ugtP deletion, OD600 growth, 16 h; some inactives read as strong as hits; growth inhibition, % (no concentration beside the values); hit rate 0.54% among 330,000;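 active = z-score under -3 and OD600 up to 0.15 on both plates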;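 also: plate controls were untreated wells for no effect and antibiotic for full effect; wells of about 80 µL received 100 nL stock; the first replicate is given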
Mtb hypoxia rep = inhibitors of hypoxia-regulated fluorescent reporter in Mycobacterium tuberculosis | M. tuberculosis hypoxia-regulated fluorescent reporter, fluorescence | fluorescence inhibition, % (no concentration beside the values) | hit rate 0.1% among 300,000;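 active = 35 to 45% if threefold the growth effect, above 45% if 1.5-fold the growth effect; inactive = the rest, general growth blockers included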;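 also: wells of about 50 µL received 100 nL stock; 0% = vehicle wells and 100% = reference inhibitor wells; whole bacteria with a GFP reporter of the hypoxia response; strong numbers were not always called active; many hits fall short of the cut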
BJeLR lethal = kills HRASV12-expressing BJeLR cells | BJeLR (HRASV12) viability, CellTiter-Glo ATP luminescence, 48 h; reference of the scale not given here | inhibition, % (no concentration beside the values) | hit rate 0.17% among 300,000 | AID 1554;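 active = replicate mean above 50%; inconclusive = above 50% but judged a plate artefact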;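 also: 50 nL library stock added to about 25 µL; numbers are from one replicate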
Bead autofluor = counter-screen for toxin protease inhibitors: compound fluorescence; compound autofluorescence counterscreen, microsphere flow cytometry; hits give high values; fluorescence intensity (no concentration beside the values); AID 624483; hit rate 3.1% among 360,000;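 active = at least 3 SD above the mean of all compounds, about 16000 in these data; inconclusive = too few beads counted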;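 also: 100 nL of 1 mM stock went into each well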
Sa RN4220 lethal = S. aureus RN4220 growth inhibition | OD600, 16 h | inhibition, % (no concentration beside the values) | hit rate 0.33% among 330,000 | AID 1259311;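 active = z-score of -3 or lower and OD600 up to 0.18 on both plates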;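 also: plate controls were untreated cells for no effect and reference antibiotic for full effect; stock transfer was 100 nL into about 80 µL; one replicate is shown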
Mtb hypoxia rep growth = second read-out of Mtb hypoxia rep, no call of its own (marks repeat the call); growth inhibition, %; measured here: M. tuberculosis growth (absorbance);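 0% = vehicle and 100% = reference antibiotic; read after six days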
Active calls of the source: *; ? = inconclusive; / = no result given. Rows were taken by chance; any-hit rate near 4%.

SMILES | PrP 5UTR inh | ugtP null kill | Mtb hypoxia rep | Mtb hypoxia rep growth | BJeLR lethal | Bead autofluor | Sa RN4220 lethal
COC(=O)c1ccc(C2/C(=C(\O)c3ccc(OC)c(C)c3)C(=O)C(=O)N2c2cc(C)on2)cc1 (stereo not drawn) | -19 | 9 | / | / | 0 | 3619 | 12
CCOc1ccc(S(=O)(=O)N2CCN(C(=O)Cc3ccc(S(=O)(=O)N4CCOCC4)s3)CC2)cc1 | -5 | 1 | -4 | -1 | 5 | 4426 | 2.1
Cc1cc(C)nc(Nc2ccc(O)cc2)n1 | -10 | -2 | 10 | 10 | 7 | 3523 | -1.0
CCN(CC)CCn1c2c(c(SCC(=O)Nc3cc(OC)cc(OC)c3)nc1=O)CCC2 | -16 | 6 | 8 | 3 | 12 | ? | 1.9
CC(=O)N(Cc1ccccc1)c1ccc(C(=O)O)cc1 | -4 | 4 | / | / | -5 | 3479 | 5.0
COc1cc(CC(=O)O)c([N+](=O)[O-])cc1OC | -14 | 8 | 5 | 9 | -1 | 4276 | 3.8
Cc1cc(C(=O)COc2ccc(F)cc2Br)c(C)n1C1CC1 | -38 | 14 | 2 | -3 | / | 5315 | 4.6
CCOC(=O)c1nnc(-c2ccccc2)nc1Sc1ccccc1Cl | -8 | 33 | / | / | 1 | 2363 | 3.9
Cc1ccc(NC(=O)c2snc3ccc(Cl)cc23)cc1C | -56 | -2 | 5 | -2 | -6 | 2177 | 0.0
Cc1cc(NC(=O)c2cccc([N+](=O)[O-])c2)no1 | -2 | 3 | -9 | 3 | 16 | 3449 | 3.2
N=C1SCC(=O)N1c1ccccc1Cl | -14 | 5 | 0 | -2 | -10 | 3102 | 4.4
CCOc1ncccc1C(=O)NCc1cccc(OC)c1 | -9 | 1 | 3 | 0 | 19 | 2460 | 3.2
OCCN1CCSC1=S | -19 | 8 | 6 | 0 | / | 3671 | 3.5
CCOC(=O)c1c(-c2cccc(N)c2)cn2ccccc12 | 33 | 1 | 1 | 10 | -2 | 3218 | 0.7
Cc1cc(C)c2c(n1)sc1c(O)cc(=O)[nH]c12 | -11 | 15 | 11 | 4 | -10 | 3134 | 7.4
COc1ccccc1C(=O)NCCC(=O)N1CCN(S(=O)(=O)c2ccccc2C(F)(F)F)CC1 | -5 | -3 | 7 | -1 | / | ? | 1.5
O=C(NC(Cc1c[nH]c2ccccc12)C(=O)N/N=C/c1ccc(Cl)cc1)c1cccs1 (stereo not drawn) | -14 | / | / | / | 3 | 5004 | /
Cc1ccc2[nH]cc(CCNC(=O)CN3C(=O)c4ccccc4C3=O)c2c1 | -16 | 5 | 6 | -1 | -9 | 2612 | 0.5
COc1cccc(-c2nc(CS(=O)(=O)CC(=O)NC3CCCCCC3)c(C)o2)c1 | -3 | -1 | 4 | -5 | 7 | 5625 | 3.0
CCOc1ccccc1-c1nc(C(N)=O)c2[nH]c(=O)n(-c3cccc(C)c3)c2n1 | -7 | -18 | -4 | 10 | -16 | 3705 | -7.1
COc1cc(NS(=O)(=O)c2ccc(C)cc2)c2ncccc2c1 | 5 | -17 | 8 | 9 | 23 | 8344 | 13
Cc1ccc2nc(SC(C)C(=O)NC3CCCC3)[nH]c2c1 (stereo not drawn) | -54 | 4 | 6 | 10 | / | 4119 | 4.0
CCN1CCCc2cc(CN(CCN3CCOCC3)C(=S)Nc3cc(F)cc(F)c3)ccc21 | -13 | 7 | 11 | 9 | 6 | 4879 | 3.6
Cc1ccc(Nc2ccc(C(=O)O)cc2[N+](=O)[O-])cc1 | -6 | 4 | 15 | 5 | -9 | 3785 | 5.0
O=C(CSc1nncn1-c1cccnc1)Nc1ccccc1C(F)(F)F | -22 | 8 | 0 | 4 | -5 | 4156 | 4.3
COc1ccc(NC(=O)COC(=O)c2cc(Cl)ccc2O)cc1S(=O)(=O)N1CCCCC1 | -11 | 4 | -1 | 2 | / | 7800 | 2.0
Cn1c(=O)c2c(ncn2CC(=O)OCC(=O)NC2CCCc3ccccc32)n(C)c1=O (stereo not drawn) | -22 | 5 | 8 | 14 | 4 | 22870* | 5.4
O=c1c2[nH]cnc2n(-c2cccc(Br)c2)c(=O)n1Cc1ccccc1 | -5 | 4 | -5 | -8 | -5 | 3110 | 1.9
COc1cc(CNC(=O)c2ccc3c(c2)S(=O)(=O)c2ccccc2C3=O)cc(OC)c1 | -18 | 15 | 5 | 3 | -15 | 3744 | 15
O=C(c1ccc2c3c(cccc13)CC2)N1CCN(c2ncccn2)CC1 | 2 | 12 | 11 | -2 | 0 | 11191 | 9.4
COC(=O)c1cccc(NC(=O)c2cccc(N3C(=O)CCC3=O)c2)c1 | -19 | 2 | 4 | -2 | / | 3508 | 1.5
C=C(CCO)C1=CCN(S(=O)C(C)(C)C)[C@@H]1CCO (stereo partly drawn) | -17 | 16 | 3 | -3 | / | 2930 | 4.6
Cc1cccc(Cn2cc(SCC(=O)Nc3nccs3)c3ccccc32)c1 | -5 | 8 | -9 | -9 | -4 | 5526 | 19
CCOc1nc(C)ccc1-c1noc(CC)n1 | -18 | 10 | 2 | -8 | 4 | 4383 | 6.2
CC(C)OC(=O)CC(=O)CSc1nc(-c2ccc(F)cc2)cc(-c2ccccc2)c1C#N | -15 | 4 | 9 | -5 | -6 | 2180 | 6.5
COc1ccccc1CC(=O)N1CCN(c2cccc(C(F)(F)F)c2)CC1 | -4 | 3 | 13 | 10 | -1 | 11784 | -1.2
CN1CCc2c(sc(NC(=O)c3ccc(S(=O)(=O)N4CCCCCC4)cc3)c2C(N)=O)C1 | -10 | / | / | / | -5 | 5090 | /
CN(C)CCNC(=O)Nc1ccc(F)cc1F | 1 | 10 | 3 | 2 | 2 | 3289 | 1.6
Cc1cc(/C=C2/NC(=O)NC2=O)c(C)n1-c1ccc(C#N)cc1 | -20 | 17 | 4 | 5 | -3 | 3637 | 11
CC(=O)Nc1ccc(/C=C/c2nc3ccccc3[nH]c2=O)cc1 | -18 | -5 | -7 | -3 | -7 | 3638 | 1.4
Cc1ccc(C)c(OCCC(=O)OCC(=O)NC2CCCC2)c1 | -17 | 3 | 11 | 1 | 5 | 4894 | 0.9
COc1ccc(CC(=O)NNc2ncnc3c2cnn3-c2ccc(C)cc2)cc1 | -8 | -3 | 0 | -3 | 5 | 11294 | 8.2
O=C(c1cccc(-c2nnc(-c3ccccc3)o2)c1)N1CCCCC1 | -73 | -1 | 2 | 26 | -4 | 3013 | 7.1
CSc1cccc(NC(=O)COC(=O)C2CCN(S(=O)(=O)c3ccccc3)CC2)c1 | -28 | -3 | 2 | 2 | / | 5523 | -0.1
Cc1nc2ccccn2c1C(=O)NN=Cc1ccccc1[N+](=O)[O-] | / | 4 | 2 | 13 | / | / | 1.6
CN(C)Cc1ccccc1CCc1ccccc1 | / | 4 | 14 | -3 | 3 | / | 4.4
COc1ccc(NC(=O)CSc2n[nH]c(-c3ccco3)n2)cc1 | -7 | -7 | -1 | 0 | 4 | 4971 | -2.5
C=CCOc1ccc(CNCc2cccnc2)cc1 | -27 | 14 | 3 | 4 | -1 | 3708 | 3.2
COc1cccc(C(=O)NCC(=O)N/N=C(C)\C=C\c2ccccc2)c1 | -12 | / | / | / | 4 | 3513 | /
CCc1ccccc1NC(=O)c1cnn(-c2ccccc2)c1C | -20 | 1 | 3 | 5 | 11 | 4414 | 3.4
CN(C)S(=O)(=O)c1ccc(C(=O)NCC2CC2(Cl)Cl)cc1 (stereo not drawn) | 63* | 11 | 3 | 8 | 0 | 4125 | 0.6
Cc1c(C(=O)Nc2cccc(-c3nnc4n3CCCCC4)c2)oc2ccccc12 | -23 | -17 | 2 | 11 | -8 | 9848 | 9.3
Cc1cc(C)c(C)c(C(=O)c2ccccc2C(=O)O)c1C | -34 | 5 | 12 | 5 | -2 | 4173 | 7.9
CCOC(=O)C(=CNc1cccc(C)n1)C(=O)OCC | -23 | 3 | 5 | 10 | -8 | 2802 | 4.3
CC1(C)Cc2cccc(OCC(=O)OCc3nnc(-c4ccc([N+](=O)[O-])cc4)o3)c2O1 | -5 | 8 | 9 | 22 | / | 2910 | 7.8
Cn1cc(CNCc2ccc(OC(F)(F)F)cc2)c(-c2ccc3c(c2)OCCO3)n1 | / | 5 | 5 | 8 | 5 | 4905 | 1.2
CC(C)(C)OC(=O)NC1CNNC1=O (stereo not drawn) | -19 | 0 | 5 | -1 | / | 4068 | 4.6
CC1=Nn2c(nnc2-c2ccccc2)SC1 | -12 | 6 | / | / | 12 | 4212 | -2.0
N#Cc1nc(-c2cccc3ccccc23)oc1NCC1CCCO1 (stereo not drawn) | / | -14 | 8 | 4 | -3 | 4130 | -4.8
CCCCC(=O)Nc1ccccc1C(=O)OCC(=O)c1ccc2c(c1)OCCO2 | -9 | -7 | -7 | 2 | 3 | 1918 | 5.1

Continued.
SMILES | PrP 5UTR inh | ugtP null kill | Mtb hypoxia rep | Mtb hypoxia rep growth | BJeLR lethal | Bead autofluor | Sa RN4220 lethal
CC(C)NC(=O)c1ccccc1NC(=O)c1ccccc1N(C)S(C)(=O)=O | / | 7 | 6 | 4 | -14 | 9623 | 4.6
CC12CCC(c3c(C(=O)N4CCOCC4)nn(-c4ccccc4)c31)C2(C)C (stereo not drawn) | -11 | 3 | 6 | 4 | -5 | 4337 | -1.6
CCOC(=O)CNc1c(-c2ccc(O)cc2)nc2ccc(Cl)cn12 | -14 | -2 | 12 | 7 | 1 | 23767* | 9.4
Cc1cc(=O)[nH]c(Nc2ccc(Cl)cc2)n1 | -8 | -2 | 2 | 6 | 1 | 5647 | 1.5
CC(CC(=O)N1CCN(c2ccccc2)CC1)S(=O)(=O)c1ccc2c(c1)NC(=O)CO2 (stereo not drawn) | -11 | 4 | -1 | -3 | 4 | 4438 | -0.1
COc1ccc(/C=N/NC(=O)c2ccccc2NC(=O)c2ccco2)c(OC)c1 | -36 | / | / | / | -5 | 5460 | /
O=C1NC(CCc2ccccc2)C(=O)N1Cc1cccc2ccccc12 (stereo not drawn) | -5 | 1 | 14 | -2 | -3 | 2053 | 6.9
CCOC(=O)C(C)n1cnc2c(nnn2-c2cccc(Cl)c2)c1=O (stereo not drawn) | -19 | -4 | 11 | 9 | -3 | 5980 | -8.6
CC(C=NNC(=O)C(=O)NN=CC(C)=Cc1ccccc1)=Cc1ccccc1 | -26 | 2 | 21 | 11 | / | 3587 | 1.7
Nc1ccc2nc(CCCO)[nH]c2c1 | -24 | 6 | 5 | 1 | 6 | 4296 | 3.0
COc1ccc(C)cc1NC(=O)C(Sc1nnc(-c2cccs2)o1)c1ccccc1 (stereo not drawn) | -25 | 8 | 6 | 7 | 0 | 2180 | 2.2
CC(C)(C)c1ccc(S(=O)(=O)NCc2ccccn2)cc1 | -15 | 2 | -3 | 3 | 0 | 3366 | -3.4
CN(c1c[nH]c(=O)[nH]c1=O)C1CCCCC1 | -11 | / | / | / | -4 | 3583 | /
COc1ccc2cc(-c3ccon3)ccc2c1 | -39 | 7 | 2 | 10 | 2 | 3749 | 10
O=C(Nc1cccc2c1CCCC2)C1CCN(c2nnnn2-c2ccccc2)CC1 | -8 | 1 | 7 | 14 | 1 | 8810 | 4.2
Cc1cc(-c2nnc(CCC(=O)N(CC3CC3)CC3CCCO3)o2)no1 (stereo not drawn) | -29 | -3 | 15 | 0 | 3 | 2631 | 5.4
Nc1nonc1-c1nc2ccccc2n1CC(=O)N/N=C/c1ccc(-c2cccc(C(=O)O)c2)o1 | -14 | / | / | / | 3 | 5741 | /

4 of these compounds in another layout.
Cc1ccc(Nc2ccc(C(=O)O)cc2[N+](=O)[O-])cc1
  PrP 5UTR inh: -6
  ugtP null kill: 4
  Mtb hypoxia rep: 15
  Mtb hypoxia rep growth: 5
  BJeLR lethal: -9
  Bead autofluor: 3785
  Sa RN4220 lethal: 5.0

O=C(CSc1nncn1-c1cccnc1)Nc1ccccc1C(F)(F)F
  PrP 5UTR inh: -22
  ugtP null kill: 8
  Mtb hypoxia rep: 0
  Mtb hypoxia rep growth: 4
  BJeLR lethal: -5
  Bead autofluor: 4156
  Sa RN4220 lethal: 4.3

COc1ccc(NC(=O)COC(=O)c2cc(Cl)ccc2O)cc1S(=O)(=O)N1CCCCC1
  PrP 5UTR inh: -11
  ugtP null kill: 4
  Mtb hypoxia rep: -1
  Mtb hypoxia rep growth: 2
  BJeLR lethal: /
  Bead autofluor: 7800
  Sa RN4220 lethal: 2.0

Cn1c(=O)c2c(ncn2CC(=O)OCC(=O)NC2CCCc3ccccc32)n(C)c1=O (stereo not drawn)
  PrP 5UTR inh: -22
  ugtP null kill: 5
  Mtb hypoxia rep: 8
  Mtb hypoxia rep growth: 14
  BJeLR lethal: 4
  Bead autofluor: 22870*
  Sa RN4220 lethal: 5.4
